HIV Env fusion – inhibitors of HIV Env-mediated cell fusion | HeLa-JRFL Env/CEM21 cell fusion, luciferase | inhibition, % at 12.3 µM | actives 1.1% (n = 360,000) | AID 651610;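 active = mean replicate inhibition score of at least 50 and every replicate individually at or above 50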;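 also: 0% = plate neutral controls and 100% = maraviroc near 300 nM; one replicate is shown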
Yeast UUG start – modulators of start codon recognition fidelity in yeast; AID 602363; activity score, % at 18.7 µM; S. cerevisiae UUG-firefly luciferase reporter, luminescence/redox ratio; actives 0.13% (n = 350,000);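 active = replicate mean at a twofold rise or more, about +100% in these data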;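 also: firefly luciferase made from a UUG start codon reports start codon fidelity; reporter light over untreated wells divided by growth signal over untreated wells; some hits fall short of that in this replicate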
* hit, by the source's call; [ ] = dose if it differs, or a comment. The list is partial. The share of hits here may be higher or lower than overall.

entry	molecule	HIV Env fusion	Yeast UUG start
1	C[C@H]1CCCCO[C@H](CN(C)C(=O)Cc2ccccc2)[C@@H](C)CN([C@@H](C)CO)C(=O)c2cc(NC(=O)Nc3ccc(F)cc3)ccc2O1	31[16.7 µM]	-5
2	COCC(=O)N(C)C[C@@H]1Oc2ncc(Br)cc2C(=O)N([C@H](C)CO)C[C@@H]1C	-20[16.7 µM]	-9
3	OC(CSc1nc2ccccc2s1)CC(O)c1ccccc1 (stereo unspecified)	-14[16.7 µM]	-10
4	CO[C@H]1CN(C)C(=O)c2ccc(NS(=O)(=O)c3ccccc3Cl)cc2OC[C@H](C)NC[C@@H]1C	-59[16.7 µM]	12
5	Cc1noc(C)c1NC(=O)Nc1ccc2c(c1)C(=O)N([C@@H](C)CO)C[C@@H](C)[C@@H](CN(C)C(=O)Nc1ccc(F)cc1)OCCCC[C@@H](C)O2	-13[16.7 µM]	17
6	COc1ccc(NC(=O)Nc2ccc3c(c2)CC(=O)N([C@@H](C)CO)C[C@@H](C)[C@H](CN(C)S(=O)(=O)c2cccs2)O3)cc1	-12[16.7 µM]	2
7	C[C@@H]1CN([C@H](C)CO)C(=O)Cc2cc(NC(=O)c3ccncc3)ccc2O[C@@H]1CN(C)C(=O)NC1CCCCC1	14[16.7 µM]	8
8	Cc1noc(C)c1NC(=O)N[C@H]1CC[C@@H](CC(=O)Nc2ccc(-c3ccccc3)cc2)O[C@@H]1CO	22[16.7 µM]	15
9	CN1C(=O)c2cc(NC(=O)C3CCOCC3)ccc2OC[C@H]2O[C@@H](CC(=O)O)CC[C@H]21	0[16.7 µM]	-7
10	O=C(C[C@H]1C[C@@H]2c3cc(NC(=O)c4ccc5c(c4)OCO5)ccc3O[C@@H]2[C@H](CO)O1)NCc1ccc(Cl)cc1	8[16.7 µM]	-7
11	O=C(C[C@@H]1C=C[C@@H](NC(=O)c2ccncc2)[C@@H](CO)O1)NCCc1ccncc1	-8[16.7 µM]	7
12	Cc1ccc(S(=O)(=O)N(C)C[C@H]2Oc3ccc(NC(=O)C4CCCCC4)cc3C(=O)N([C@H](C)CO)C[C@@H]2C)cc1	-51[16.7 µM]	-7
13	Cc1ccc(S(=O)(=O)Nc2ccc3c(c2)CC(=O)N([C@H](C)CO)C[C@@H](C)[C@@H](CN(C)S(=O)(=O)c2cccs2)O3)cc1	27[16.7 µM]	-2
14	CC(C)CC#Cc1ccc2c(c1)O[C@H](CN(C)C(=O)c1ccccc1)[C@H](C)CN([C@@H](C)CO)S2(=O)=O	21[16.7 µM]	-1
15	C[C@H]1CN([C@@H](C)CO)C(=O)c2cccc(N(C)C)c2O[C@@H]1CN(C)Cc1ccc(C(=O)Nc2ccccc2N)cc1	1[16.7 µM]	6
16	C[C@@H]1CCCCO[C@@H](CN(C)S(=O)(=O)c2ccccc2)[C@@H](C)CN([C@@H](C)CO)C(=O)c2cc(NC(=O)c3ccccc3)ccc2O1	16[16.7 µM]	-6
17	C[C@@H]1CN([C@H](C)CO)C(=O)c2cc(NC(=O)Nc3ccc4c(c3)OCO4)ccc2O[C@@H]1CN(C)Cc1ccc(C(F)(F)F)cc1	5[16.7 µM]	0
18	C[C@@H]1CCCCO[C@@H](CN(C)S(=O)(=O)c2cccs2)[C@H](C)CN([C@@H](C)CO)C(=O)c2cc(NC(=O)C3CCCCC3)ccc2O1	-62[16.7 µM]	-7
19	C[C@@H]1CCCCO[C@H](CN(C)C(=O)Nc2ccc(F)cc2)[C@H](C)CN([C@@H](C)CO)C(=O)c2cc(NC(=O)NC3CCCCC3)ccc2O1	8[16.7 µM]	-11
20	COc1ccccc1S(=O)(=O)N[C@@H]1CC[C@H](CCNC(=O)C2CCCC2)O[C@H]1CO	-12[16.7 µM]	-11
21	C[C@@H]1CN([C@H](C)CO)C(=O)c2cccc(NS(=O)(=O)c3ccc(F)cc3)c2O[C@H]1CN(C)S(=O)(=O)c1cn(C)cn1	-17[16.7 µM]	2
22	CCNC(=O)C[C@H]1CC[C@@H]2[C@@H](COc3ccc(NC(=O)Nc4cccc(OC)c4)cc3C(=O)N2C)O1	59*[16.7 µM]	3
23	Cn1cnc(S(=O)(=O)N[C@@H]2CC[C@H](CC(=O)Nc3ccc(-c4ccccc4)cc3)O[C@@H]2CO)c1	1[16.7 µM]	-8
24	C[C@@H]1CN([C@@H](C)CO)C(=O)c2cccc(NS(=O)(=O)c3cn(C)cn3)c2O[C@@H]1CN(C)S(=O)(=O)c1ccccc1	-12[16.7 µM]	-8
25	O=C(Nc1ccc(C(F)(F)F)cc1)N[C@H]1CC[C@@H](CC(=O)N2CCCCC2)O[C@@H]1CO	-3[16.7 µM]	-4
26	CCC(=O)Nc1ccc2c(c1)C(=O)N(C)C[C@@H](OC)[C@@H](C)CN(Cc1ccccn1)[C@@H](C)CO2	-14[16.7 µM]	1
27	CCCNC(=O)N(C)C[C@H]1Oc2ncc(-c3ccccc3)cc2C(=O)N([C@H](C)CO)C[C@H]1C	-16[16.7 µM]	4
28	CC(C)C(=O)Nc1ccc2c(c1)C(=O)N(C)[C@@H]1CC[C@H](CC(=O)NCc3cccc(F)c3)O[C@@H]1CO2	-21[16.7 µM]	9
29	CNC(=O)C[C@H]1CC[C@H]2[C@H](COc3ccc(NC(=O)NC(C)C)cc3C(=O)N2C)O1	-11[16.7 µM]	-12
30	C[C@H]1CN([C@@H](C)CO)C(=O)c2cc(C#Cc3ccccc3F)cnc2O[C@@H]1CN(C)C(=O)C1CC1	6[16.7 µM]	-7

Profiles as entered above:
`CN1C(=O)c2cc(NC(=O)C3CCOCC3)ccc2OC[C@H]2O[C@@H](CC(=O)O)CC[C@H]21` is entered as HIV Env fusion: 0[16.7 µM]; Yeast UUG start: -7
`OC(CSc1nc2ccccc2s1)CC(O)c1ccccc1` (stereo unspecified) is entered as HIV Env fusion: -14[16.7 µM]; Yeast UUG start: -10

Individual results from the entries so far:
CC(C)CC#Cc1ccc2c(c1)O[C@H](CN(C)C(=O)c1ccccc1)[C@H](C)CN([C@@H](C)CO)S2(=O)=O @ HIV Env fusion = 21[16.7 µM]
OC(CSc1nc2ccccc2s1)CC(O)c1ccccc1 (stereo unspecified) @ HIV Env fusion = -14[16.7 µM]

Next records.
entry	molecule	HIV Env fusion	Yeast UUG start
31	COc1ccc(CNC(=O)C[C@@H]2CC[C@@H](NC(=O)c3ccc4c(c3)OCO4)[C@H](CO)O2)cc1	9[16.7 µM]	14
32	CO[C@@H]1CN(C)C(=O)c2cc(NC(C)=O)ccc2OC[C@H](C)N(Cc2cccc(F)c2)C[C@@H]1C	-10[16.7 µM]	9
33	C[C@H](CO)N1C[C@H](C)[C@H](CN(C)S(=O)(=O)c2cccs2)OCCCC[C@H](C)Oc2ccc(NS(=O)(=O)c3ccc(F)cc3)cc2C1=O	-50[16.7 µM]	-2
34	C=CC[C@@]1(C(=O)N2CCOCC2)N=C(c2ccc(OCCCO)cc2)O[C@@H]1c1ccccc1	-14[16.7 µM]	4
35	C[C@H]1CN([C@@H](C)CO)C(=O)c2cc(C3=CCCC3)cnc2O[C@H]1CN(C)C(=O)Cc1ccncc1	-10[16.7 µM]	-3
36	CC(C)C#Cc1cnc2c(c1)C(=O)N([C@H](C)CO)C[C@@H](C)[C@@H](CN(C)C(=O)CCN1CCCCC1)O2	-14[16.7 µM]	20
37	Cc1ccc(S(=O)(=O)N(C)C[C@H]2Oc3ccc(NS(=O)(=O)c4ccc(F)cc4)cc3CC(=O)N([C@H](C)CO)C[C@@H]2C)cc1	15[16.7 µM]	7
38	C[C@@H]1CN([C@H](C)CO)C(=O)c2cccc(NC(=O)C3CCOCC3)c2O[C@H]1CN(C)C(=O)Nc1ccc(F)cc1	-1[16.7 µM]	-16
39	COc1ccccc1CNC(=O)C[C@@H]1C=C[C@@H](NC(=O)CC2CC2)[C@@H](CO)O1	-29[16.7 µM]	-10
40	C[C@H]1CN([C@@H](C)CO)S(=O)(=O)c2ccc(-c3cncnc3)cc2O[C@@H]1CN(C)C(=O)NC1CCCC1	23[16.7 µM]	-12
41	COc1ccc(NC(=O)Nc2ccc3c(c2)C(=O)N([C@@H](C)CO)C[C@@H](C)[C@@H](CN(C)S(=O)(=O)c2cn(C)cn2)OCCCC[C@@H](C)O3)cc1	-47[16.7 µM]	1
42	Cc1noc(C)c1NC(=O)Nc1cccc2c1O[C@@H](CN(C)C(=O)Nc1ccc(C(F)(F)F)cc1)[C@H](C)CN([C@H](C)CO)C2=O	-27[16.7 µM]	-4
43	C[C@@H]1CN([C@H](C)CO)C(=O)c2cc(NC(=O)c3ccncc3)ccc2O[C@@H](C)CCCCO[C@H]1CN(C)C(=O)Nc1ccccc1	4[16.7 µM]	5
44	Cc1noc(C)c1S(=O)(=O)N(C)C[C@@H]1OCCCC[C@H](C)Oc2ccc(NC(=O)NC(C)C)cc2C(=O)N([C@H](C)CO)C[C@H]1C	34[16.7 µM]	12
45	C[C@H](CO)N1C[C@H](C)[C@H](CN(C)C(=O)Nc2ccccc2)Oc2ncc(C#CC3CCCC3)cc2C1=O	-17[16.7 µM]	11
46	CCc1cnc(N2[C@H](C#N)[C@@H](c3ccccc3)[C@H]2CO)s1	-2[16.7 µM]	6
47	CCCNC(=O)N(C)C[C@H]1Oc2cc(C#CCC(C)C)ccc2S(=O)(=O)N([C@@H](C)CO)C[C@H]1C	2[16.7 µM]	1
48	CC(C)NC(=O)N(C)C[C@@H]1Oc2ccc(NS(=O)(=O)c3cn(C)cn3)cc2CC(=O)N([C@H](C)CO)C[C@H]1C	-2[16.7 µM]	-7
49	CC(=O)N(C)C[C@H]1Oc2cc(C#C[C@@H](C)O)ccc2S(=O)(=O)N([C@H](C)CO)C[C@H]1C	4[16.7 µM]	-6
50	CCC(=O)Nc1ccc2c(c1)C(=O)N(C)[C@@H]1CC[C@@H](CC(=O)NCCc3ccccc3)O[C@H]1CO2	-10[16.7 µM]	-16
51	C[C@@H]1CN([C@H](C)CO)C(=O)c2cc(NC(=O)C3CCCCC3)ccc2O[C@H]1CN(C)Cc1ccccc1	10[16.7 µM]	16
52	C[C@H]1CN([C@@H](C)CO)C(=O)c2cc(C3=CCCCC3)cnc2O[C@H]1CN(C)C(=O)NC1CCCC1	0[16.7 µM]	5
53	COc1ccc(S(=O)(=O)Nc2ccc3c(c2)CC(=O)N([C@H](C)CO)C[C@H](C)[C@H](CN(C)S(=O)(=O)c2cn(C)cn2)O3)cc1	2[16.7 µM]	3
54	Cc1noc(C)c1S(=O)(=O)Nc1cccc2c1O[C@@H](CN(C)S(=O)(=O)c1ccc(F)cc1)[C@@H](C)CN([C@@H](C)CO)C2=O	-4[16.7 µM]	-1
55	C[C@@H]1CCCCO[C@H](CN(C)C(=O)Nc2ccc(F)cc2)[C@H](C)CN([C@H](C)CO)C(=O)c2cc(NS(=O)(=O)c3ccc(F)cc3)ccc2O1	-15[16.7 µM]	0
56	COc1ccc(-c2cnc3c(c2)C(=O)N([C@H](C)CO)C[C@H](C)[C@@H](CN(C)C(=O)NC2CCCC2)O3)cc1	-1[16.7 µM]	11
57	Cc1ccc(S(=O)(=O)N(C)C[C@H]2Oc3ccc(NC(=O)C4CCCCC4)cc3CC(=O)N([C@H](C)CO)C[C@H]2C)cc1	15[16.7 µM]	-3
58	C[C@@H]1CN([C@@H](C)CO)C(=O)c2cc(NS(C)(=O)=O)ccc2O[C@@H]1CN(C)C(=O)Nc1ccc(C(F)(F)F)cc1	4[16.7 µM]	10
59	CCC(=O)Nc1ccc2c(c1)OC[C@@H](C)N(Cc1ccccc1F)C[C@@H](C)[C@H](OC)CN(C)C2=O	-16[16.7 µM]	30
60	COc1ccc(NC(=O)N(C)C[C@@H]2Oc3ccc(NC(=O)c4ccncc4)cc3C(=O)N([C@H](C)CO)C[C@H]2C)cc1	-11[16.7 µM]	-4
61	C[C@H]1CN([C@@H](C)CO)C(=O)c2cc(-c3cccnc3)cnc2O[C@@H]1CN(C)S(C)(=O)=O	2[16.7 µM]	-16
62	CO[C@H]1CN(C)C(=O)c2ccc(NC(=O)NC(C)C)cc2OC[C@H](C)N(C(=O)CN(C)C)C[C@@H]1C	2[16.7 µM]	3
63	COc1ccc(-c2cnc3c(c2)C(=O)N([C@@H](C)CO)C[C@@H](C)[C@@H](CN(C)C(=O)Cc2cccnc2)O3)cc1	2[16.7 µM]	-2
64	C[C@H](CO)N1C[C@H](C)[C@@H](CN(C)Cc2ccc(Cl)c(Cl)c2)Oc2ccc(NC(=O)CCCN(C)C)cc2CC1=O	4[16.7 µM]	-6
65	C[C@@H]1C=C(C(=O)N2CCCCCCC2)O[C@H](OCc2ccc(CO)cc2)C1	19[16.7 µM]	3
66	CCC(=O)Nc1ccc2c(c1)C(=O)N(C)[C@H]1CC[C@@H](CC(=O)NCCOC)O[C@@H]1CO2	-7[16.7 µM]	-3
67	COc1ccccc1-c1cnc2c(c1)C(=O)N([C@@H](C)CO)C[C@@H](C)[C@@H](CN(C)Cc1cccc(F)c1)O2	16[16.7 µM]	0
68	C[C@@H]1CN([C@@H](C)CO)C(=O)c2cc(-c3cncnc3)cnc2O[C@H]1CN(C)C(=O)Cc1ccccn1	-4[16.7 µM]	16
69	CC(C)C#Cc1ccc2c(c1)O[C@H](CN(C)C(=O)CN(C)C)[C@@H](C)CN([C@H](C)CO)S2(=O)=O	-24[16.7 µM]	49
70	COc1ccc(CN(C)C[C@@H]2Oc3ccc(NC(=O)CCN4CCOCC4)cc3C(=O)N([C@H](C)CO)C[C@H]2C)cc1	1[16.7 µM]	-5
71	CN1CCN(C(=O)C[C@H]2CC[C@H](NS(=O)(=O)c3cccc(F)c3)[C@@H](CO)O2)CC1	15[16.7 µM]	-8

Source: PubChem BioAssay (Broad Institute)
